# Assay outcomes from PubChem BioAssay.
# Ecoli rRNA inh – inhibitors of bacterial rRNA selective over humanized ribosomes | E. coli WT GFP vs humanized-ribosome RFP mutants, fluorescence, 24 h; active compounds read low; DMSO median 0, no signal -100 | GFP signal change (wild-type ribosome), % (concentration not given with the values) | 350,000 tested, 1.6% active;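 active = significant combined selectivity score with lowered wild-type GFP, culture density cut under 30%, mutant RFP and density less affected; inactive = any of these conditions unmet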; also: one replicate is shown; some compounds called inactive have numbers as strong as hits
# T cruzi repl – blocks replication of Trypanosoma cruzi; T. cruzi beta-gal in NIH3T3, luminescence, 90 h; inhibition, % (concentration not given with the values); 300,000 tested, 1.4% active;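 active = mean inhibition across valid replicates above about 55%, limit read from the data; inconclusive = mean below that limit but half or more replicates reach it; inactive = mean below it, under half of replicates reach it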;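 also: signal also drops with host cell toxicity which is not excluded here; 0% = plate median of DMSO wells and 100% = zero luminescence signal; higher percent means less beta-gal luminescence so fewer parasites; stock transfer was 50 nL into about 50 µL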
# Beta cell apopt – beta cell apoptosis inhibition | INS-1E cytokine-induced death, ATP luminescence, 48 h; percent of positive-control rescue, neutral wells zero | protection from apoptosis, % (no concentration beside the values) | 300,000 tested, 0.8% active;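 active = all replicates at 75% or more, or half of them and the mean; inconclusive = half reach 75% but not the mean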;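 also: 0% = cytokine-treated negative control wells and 100% = positive control rescue; higher means more ATP so stronger rescue from cytokine killing; wells of about 40 µL received 100 nL stock; the first replicate is given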
# Calb FLC – C. albicans growth modulation with fluconazole; 300,000 tested, 0.57% active; C. albicans CaCi-2 (fluconazole-resistant clinical isolate) + fluconazole, Alamar Blue growth, 48 h; growth inhibition, % (test concentration not listed); AID 1979;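 active = most replicates above 75%; inconclusive = exactly half above 75%; inactive = most below 75%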;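 also: all wells also contain fluconazole at 8 µg/ml as a sub-toxic cotreatment; 0% = median of DMSO wells and 100% = median of geldanamycin control wells; wells of about 8 µL received 7.5 nL stock; the first replicate is given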
# Vif A3G – HIV-1 Vif–A3G interaction blockers – biochemical, TR-FRET, GST-Vif 1-94, biotin-A3G peptide, dose response retest, primary screen (AID 1117319); TR-FRET GST-Vif / biotin-A3G peptide binding; higher % means a stronger effect; test concentration not given here; strong numbers were not always called active; inhibition, %, or IC50 in µM where a hit was titrated; 260,000 tested, 0.57% active;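 active = above the screen mean plus three standard deviations and confirmed in dose response; inconclusive = results disagree or hit not tested in dose response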;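 also: Vif residues 1-94 fused to GST binding biotinylated APOBEC3G peptide 110-148; 0% = full assay without inhibitor and 100% = GST in place of GST-Vif; retest series ran down from 100 µM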
# Bfl-1 A1 inh – inhibitors of the anti-apoptotic protein A1, read as caspase activation | AID 2462 | 330,000 tested, 0.066% active | caspase activation, % (test concentration not listed) | MEF A1-2A-BIM cells, Caspase-Glo 3/7 luminescence, 3 h; percent of clofoctol response, vehicle zero;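 active = over half of replicate activation scores above 10%, or exactly half above 10 with the replicate mean above 10; inconclusive = replicate mean below 10 yet half the replicates above 10; inactive = over half of replicates below 10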;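 also: wells of about 30 µL received 50 nL stock; many hits fall short of the cut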
# AF4-AF9 inh – inhibitors of human MLL-AF4/AF9 interaction; inhibition, % at 10 µM; 350,000 tested, 0.47% active; P42568; AlphaScreen, biotin-AF4 peptide binding to FLAG-AF9;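 active = every replicate reaching a set inhibition limit, whatever the replicate mean, cut at about 25% in these data; inconclusive = mean inhibition reaches that limit but some replicates miss it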;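 also: 0% = plate neutral control median and 100% = total signal loss; the record names both 10 and 1 µM as test concentration; the first replicate is given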
# Target sequence (P42568 whole entry, looked up): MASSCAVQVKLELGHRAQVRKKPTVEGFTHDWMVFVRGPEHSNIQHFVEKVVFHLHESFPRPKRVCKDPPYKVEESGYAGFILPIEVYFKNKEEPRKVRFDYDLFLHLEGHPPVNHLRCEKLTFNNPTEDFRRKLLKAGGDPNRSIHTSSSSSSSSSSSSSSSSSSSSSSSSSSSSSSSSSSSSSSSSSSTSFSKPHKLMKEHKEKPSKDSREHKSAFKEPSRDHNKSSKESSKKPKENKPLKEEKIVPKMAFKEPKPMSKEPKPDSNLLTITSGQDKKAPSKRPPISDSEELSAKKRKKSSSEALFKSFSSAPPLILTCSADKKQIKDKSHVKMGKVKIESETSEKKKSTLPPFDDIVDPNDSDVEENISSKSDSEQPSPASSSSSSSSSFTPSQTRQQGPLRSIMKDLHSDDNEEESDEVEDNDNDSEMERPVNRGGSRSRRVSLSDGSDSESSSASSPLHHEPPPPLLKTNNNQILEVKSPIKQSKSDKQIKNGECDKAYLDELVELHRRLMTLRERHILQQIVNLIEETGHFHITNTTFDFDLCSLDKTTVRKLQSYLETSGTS
# RanGTP-Impb inh – inhibitors of RanGTP-importin-beta interaction, primary screen, biochemical, FRET, CFP-Ran, YFP-importin-beta, homogeneous; cell-free CFP-Ran/YFP-importin-beta FRET ratio; inhibition, % (concentration not given with the values); 300,000 tested, 1.1% active; AID 2216;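 active = most replicates above 15%; inconclusive = exactly half above 15%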;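 also: 0% = DMSO wells and 100% = Ran loaded with GDP instead of GTP; wells of about 40 µL received 100 nL stock; the first replicate is given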
# Ecoli rRNA inh OD600 – also measured in Ecoli rRNA inh; calls as there; OD600 change, %; measured here: OD600 growth;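 optical density of the mix in the first replicate; 0 = DMSO median and -100 = no signal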
# Ecoli rRNA inh RFP – recorded beside Ecoli rRNA inh, whose call it bears; RFP signal change, %; measured here: RFP humanized mutant strains;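 first replicate; 0 = DMSO median and -100 = no signal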
# * marks the source's active call; other numbers are inactive results; ? = inconclusive; nt = no result given; & = joins results of further samples. Some of the compounds tested (hit frequency here may not be typical).
SMILES,Ecoli rRNA inh,Ecoli rRNA inh OD600,Ecoli rRNA inh RFP,T cruzi repl,Beta cell apopt,Calb FLC,Vif A3G,Bfl-1 A1 inh,AF4-AF9 inh,RanGTP-Impb inh
COc1ccc(C(=O)CCN2CCCC(C)C2)cc1 (stereo not given),11,10,-0.6,10,-5,13,-3%,0.7,-0.5,-5.7
Cc1cc(=O)n(C)c(=O)n1CC(=O)N1CCCCCC1,nt,nt,nt,-9,1,1,25%,-0.1,nt,-3.3
CCOc1ccc(NC(=O)CC2S/C(=N/N=C3CCCCCC3)NC2=O)cc1 (stereo not given),-7,-7,1.7,1,-3,2,0%,-0.7,0.0,-2.9
COCCCNC(=S)NCCCNc1nc2cc3c(cc2cc1C#N)OCO3,18,3,1.5,-2,-30,1,-2%,0.0,-0.8,53*
CC(=O)Nc1nc(-c2cc([N+](=O)[O-])cs2)cs1,19,11,8.0,nt,3,18,-2%,0.0,-2.0,-3.3
C[C@H](CO)N1C[C@H](C)[C@@H](CN(C)C(=O)Nc2ccccc2)Oc2c(NC(=O)NC3CCCCC3)cccc2C1=O,2&9,5&6,2.5&1.2,nt,7,nt,nt,0.4,-2.7,nt
CCOC(=O)c1c(C)c(C(=O)O)n(C)c1C,nt,nt,nt,-1,-1,-1,-1%,0.2,nt,2.6
CCCn1c(SCC(=O)Nc2ccc(OC)cc2)nnc1-c1ccncc1,nt,nt,nt,-2,-3,-3,?,0.4,nt,4.8
COc1ccc(CNC(=O)C2CC(c3ccc(OC)cc3)=NO2)cc1 (stereo not given),nt,nt,nt,-2,-2,-7,3%,-0.3,nt,3.1
Cc1ccc(C(=O)COC(=O)c2cn(-c3ccccc3)nc2-c2ccccc2)cc1[N+](=O)[O-],15,15,-3.1,6,99*,-20,-12%,-0.7,1.2,1.2
COc1cccc(OC)c1NC(=O)C1CCCN1C(=O)Nc1cccc(Cl)c1 (stereo not given),nt,nt,nt,-3,1,-2,0%,0.0,-1.1,-2.3
C=CCNC(=O)N1CCCC(C(=O)c2cccc(Cl)c2)C1 (stereo not given),-2,3,-4.1,-11,-3,12,0%,0.3,-16,4.2

# Entries listed so far that bear a hit mark in RanGTP-Impb inh.
mol,Ecoli rRNA inh,Ecoli rRNA inh OD600,Ecoli rRNA inh RFP,Vif A3G,AF4-AF9 inh,RanGTP-Impb inh
COCCCNC(=S)NCCCNc1nc2cc3c(cc2cc1C#N)OCO3,18,3,1.5,-2%,-0.8,53*

# (next part)
SMILES,Ecoli rRNA inh,Ecoli rRNA inh OD600,Ecoli rRNA inh RFP,T cruzi repl,Beta cell apopt,Calb FLC,Vif A3G,Bfl-1 A1 inh,AF4-AF9 inh,RanGTP-Impb inh
O=C(NC(=S)NCc1ccco1)c1cccc(Cl)c1,-2,3,-0.9,5,nt,-17,-1%,0.2,-0.4,0.7
Cc1cc(Br)ccc1NC(=S)NCCc1ccccc1,-19,-47,3.7,nt,6,-36,8%,-1.1,-2.7,nt
CCOCCCNC(=O)c1ccc2c(c1)ncn2-c1cccc(C)c1,-3,11,-3.0,-1,5,7,-1%,0.0,1.4,-0.4
CCCCCc1cc(=O)oc2c(C(CCN3CCCCC3)c3cc(OC)c(OC)c(OC)c3)c(OC)cc(OC)c12 (stereo not given),-42,-46,21,33,30,42,nt,1.1,?,5.3
COc1ccc(CCNC(=O)CCn2c(SCC#N)nc3ccccc3c2=O)cc1OC,nt,nt,nt,5,6,-12,-6%,0.3,nt,-1.0
CC(Cc1cccs1)NC(=O)Nc1ccccc1 (stereo not given),nt,nt,nt,1,-3,-15,8%,0.6,nt,-0.6
Cc1ccc(C(C(=O)NC(C)(C)C)N(Cc2ccco2)C(=O)Cn2nnc(-c3cccs3)n2)cc1 (stereo not given),nt,nt,nt,26,0,3,-2%,0.0,nt,2.1
CC(C)NC(=O)Cn1c(SCC(=O)NC2CCCC2)nc2ccccc21,6,-2,-0.6,-3,-1,-11,nt,0.3,-2.1,-1.4
Cc1cccc(-c2nc3c(c(SCC(N)=O)n2)CCCC3)c1,nt,nt,nt,7,-7,-6,-16%,-0.1,nt,5.4
CCOC(=O)NN1C(=O)c2ccccc2NC1c1ccc(OC)cc1OC (stereo not given),2,3,-2.3,0,-3,-10,-2%,0.0,-0.5,-2.1
CCCCCn1c(-c2ccco2)nc2nc3ccccc3nc21,nt,nt,nt,14,2,-5,?,0.3,nt,2.4
COc1ccc(Nc2cc(C(=O)NCCCN3CCOCC3)c3ccccc3n2)cc1OC,nt,nt,nt,2,-2,-3,0%,-0.1,nt,-0.6
C=CCn1c2ccccc2c2n[nH]c(=S)nc21,13,17,1.0,5,nt,1,nt,0.7,-0.8,1.7
CC(C)[C@@H]1CC[C@@H](C)C[C@H]1OC(=O)C[n+]1cc(-c2ccc(Cl)cc2)n2c1CCCCC2,nt,nt,nt,51,1,95*,-1%,0.0,11,0.8
COc1ccc(CNC(=O)C2CCCN2S(=O)(=O)c2ccc(Cl)cc2)cc1 (stereo not given),-5,3,-9.3,-2,0,1,3%,0.6,-2.3,4.6
Cc1cc(C)c(S(=O)(=O)N2CCN(c3ccc([N+](=O)[O-])c(-n4nc(C)cc4C)c3)CC2)c(C)c1,nt,nt,nt,61*,6,21,0%,0.8,nt,?
O=c1[nH]ncc(N2CCCCC2)c1Cl,nt,nt,nt,-12,-11,10,-5%,0.1,nt,-4.3
COc1ccc2nc3c(c(-c4ccccc4)c2c1)CCC3,-45,-68,-10,5,-8,-17,14%,-0.6,nt,-2.0
CC1CCCN(c2c([N+](=O)[O-])c(=O)oc3ccccc23)C1 (stereo not given),nt,nt,nt,-14,-4,-5,-5%,-1.9,nt,-3.3
O=C(COC(=O)c1ccc(O)cc1O)NC1CC1,2,3,0.2,nt,2,nt,-2%,-0.6,0.1,nt
Cc1ccccc1OCC(=O)Nc1ccc2c(c1)OCCO2,-13,-7,-2.2,-1,-3,-1,6%,-2.9,-1.8,0.9
Nc1nc(SCC(=O)NCCCO)nc2sc3c(c12)CCC3,nt,nt,nt,-5,11,3,?,0.3,nt,-3.9
COc1ccc(CCN(C)C(=O)CN2C(=O)NC3(CCCc4ccccc43)C2=O)cc1OC (stereo not given),-1,-6,-0.1,0,2,-3,nt,-0.5,-5.4,nt
COc1ccccc1C(=O)ON=C1c2ccccc2-c2ccccc21,nt,nt,nt,-8,-2,-8,5%,-0.2,nt,3.0
O=C(Cn1nc(Cc2cccnc2)c2ccccc2c1=O)N1CCN(c2ccccn2)CC1,4,2,-1.8,nt,0,nt,5%,1.0,0.4,nt
Cc1ccccc1NC(=S)N(CCCN1CCOCC1)Cc1cccs1,nt,nt,nt,-7,-4,-12,nt,-0.1,nt,0.4
CC(C)c1cc(C(N)=O)c(NC(=O)c2cccc(COc3ccc(Br)cc3)c2)s1,nt,nt,nt,60*,11,7,2%,-0.1,nt,-1.2
O=C(N/C(=C\c1cccc([N+](=O)[O-])c1)C(=O)N1CCOCC1)c1ccco1,33,22,1.4,6,-12,-6,1%,0.2,1.1,0.6
CCCCc1ccc(NC(=S)N2CCN(c3ncccn3)CC2)cc1,-8,-4,-0.9,-18,-11,26,-3%,2.2,-1.1,5.4
Clc1ccc(CSc2nnc(-c3c[nH]c4ccccc34)o2)cc1,nt,nt,nt,0,-14,-8,1%,-1.4,nt,2.1
O=C(O)CC1(CC(=O)NCc2cccc(Cl)c2)CCCCC1,-3,-5,0.2,-12,nt,-9,-8%,0.0,-1.0,1.5
O=S(=O)(NCc1cccnc1)c1cccc2cccnc12,18,9,-5.7,-9,-10,2,3%,0.0,3.0,0.3
O=[N+]([O-])c1ncn(Cc2c(Cl)cccc2Cl)n1,26,10,2.3,35,nt,19,18%,nt,-0.3,7.9
CC(=O)Nc1cccc(N(C)S(C)(=O)=O)c1,nt,nt,nt,0,2,11,4%,0.0,nt,-0.6
CC1OC(Oc2c(-c3cc(O)c(O)c(O)c3)oc3cc(O)cc(O)c3c2=O)C(O)C(O)C1O (stereo not given),10,6,-9.3,-18,nt,-5,?,nt,3.6,6.0

# Two entries from above, with values under each structure:
# Value order: Ecoli rRNA inh	Ecoli rRNA inh OD600	Ecoli rRNA inh RFP	T cruzi repl	Beta cell apopt	Calb FLC	Vif A3G	Bfl-1 A1 inh	AF4-AF9 inh	RanGTP-Impb inh
> O=C(O)CC1(CC(=O)NCc2cccc(Cl)c2)CCCCC1
    -3	-5	0.2	-12	nt	-9	-8%	0.0	-1.0	1.5
> CCCCc1ccc(NC(=S)N2CCN(c3ncccn3)CC2)cc1
    -8	-4	-0.9	-18	-11	26	-3%	2.2	-1.1	5.4

# Ten compounds out of the list, arranged by count of non-hydrogen atoms, rising.
SMILES,Ecoli rRNA inh,Ecoli rRNA inh OD600,Ecoli rRNA inh RFP,T cruzi repl,Beta cell apopt,Calb FLC,Vif A3G,Bfl-1 A1 inh,AF4-AF9 inh,RanGTP-Impb inh
CC(=O)Nc1cccc(N(C)S(C)(=O)=O)c1,nt,nt,nt,0,2,11,4%,0.0,nt,-0.6
O=[N+]([O-])c1ncn(Cc2c(Cl)cccc2Cl)n1,26,10,2.3,35,nt,19,18%,nt,-0.3,7.9
O=S(=O)(NCc1cccnc1)c1cccc2cccnc12,18,9,-5.7,-9,-10,2,3%,0.0,3.0,0.3
Nc1nc(SCC(=O)NCCCO)nc2sc3c(c12)CCC3,nt,nt,nt,-5,11,3,?,0.3,nt,-3.9
Clc1ccc(CSc2nnc(-c3c[nH]c4ccccc34)o2)cc1,nt,nt,nt,0,-14,-8,1%,-1.4,nt,2.1
COc1ccccc1C(=O)ON=C1c2ccccc2-c2ccccc21,nt,nt,nt,-8,-2,-8,5%,-0.2,nt,3.0
Cc1ccccc1NC(=S)N(CCCN1CCOCC1)Cc1cccs1,nt,nt,nt,-7,-4,-12,nt,-0.1,nt,0.4
O=C(N/C(=C\c1cccc([N+](=O)[O-])c1)C(=O)N1CCOCC1)c1ccco1,33,22,1.4,6,-12,-6,1%,0.2,1.1,0.6
CC(C)c1cc(C(N)=O)c(NC(=O)c2cccc(COc3ccc(Br)cc3)c2)s1,nt,nt,nt,60*,11,7,2%,-0.1,nt,-1.2
CC1OC(Oc2c(-c3cc(O)c(O)c(O)c3)oc3cc(O)cc(O)c3c2=O)C(O)C(O)C1O (stereo not given),10,6,-9.3,-18,nt,-5,?,nt,3.6,6.0
